total CFTR: total CFTR protein upregulators, primary screen, cell-based, HeLa F508del-CFTR, immunofluorescence, viability (AID 1224863); HeLa F508del-CFTR, immunofluorescence total CFTR, 24 h; by the record results were divided by relative cell number; some inactives read as strong as hits; calls, or highest fold increase where a dose series was run; 10,000 tested, 0.1% active; in the data nearly all actives have a first-pass fold increase above 1.5; a few of its hits are not listed in these tables;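 further: total CFTR protein by anti-CFTR immunofluorescence in fixed cells; first pass at 25 µM or 10 µg/mL by library and series up to twice that; 1 = untreated cells; first-pass hits also needed half or more of the cells alive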
total CFTR fold 25 µM: further read-out of total CFTR, marked with its call; fold increase; measured here: primary screen single dose 25 uM; library dosed in µM
total CFTR fold 10 ug/mL: second read-out of total CFTR, no call of its own (marks repeat the call); fold increase; measured here: primary screen 10 ug/mL
total CFTR viability 25 µM: also measured in total CFTR; calls as there; viability, %; measured here: primary viability 25 uM; library dosed in µM;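 0% = killed and 100% = untreated cells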
total CFTR viability 10 ug/mL: also measured in total CFTR; calls as there; viability, %; measured here: primary viability 10 ug/mL;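 0% = killed and 100% = untreated cells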
Numbers without * were called inactive; i = inactive; nt = no result given; & = joins results of further samples.

SMILES	total CFTR	total CFTR fold 10 ug/mL	total CFTR viability 10 ug/mL	others
NC12CC3CC(CC(C3)C1)C2	i	nt	nt	total CFTR fold 25 µM=1.1&1.1&1.1;total CFTR viability 25 µM=90&83&82
O=C(CSc1cccs1)NCCN1CCOCC1	i	0.91	103
OC[C@H]1O[C@@H](O[C@@H]2[C@@H](CO)O[C@](O)(CO)[C@H]2O)[C@H](O)[C@@H](O)[C@H]1O	i	nt	nt	total CFTR fold 25 µM=1;total CFTR viability 25 µM=92
C[C@H](O)C(=O)Nc1c(I)c(C(=O)NC(CO)CO)c(I)c(C(=O)NC(CO)CO)c1I	i	nt	nt	total CFTR fold 25 µM=1;total CFTR viability 25 µM=90
CNC(=O)c1c(I)c(NC(C)=O)c(I)c(C(=O)O)c1I	i	nt	nt	total CFTR fold 25 µM=1.2;total CFTR viability 25 µM=90
Cc1sc2nc(CSc3nnnn3C3CC3)nc(N)c2c1C	i	1.1	99
O=C(COC(=O)C12CC3CC(CC(Cl)(C3)C1)C2)Nc1ccc2[nH]c(=O)[nH]c2c1	i	1.1	100
O=C(O)CCS(=O)(=O)c1ccc2c(c1)CCC2	i	1	106
Brc1csc(/C=C/c2nc3ccccc3s2)c1	i	1.2	77
Cc1cc(-c2nccn2C)c(=O)[nH]n1	i	1.1	99
COCC(C)n1c(SCN2C(=O)c3ccccc3C2=O)nc2ccccc2c1=O (centres undefined)	i	0.96	94
c1c[nH]c(-c2nnc(SCCc3ccncc3)o2)c1	i	1	93

Arranged by molar mass (rising): some entries from above.
SMILES	total CFTR	total CFTR fold 10 ug/mL	total CFTR viability 10 ug/mL	others
c1c[nH]c(-c2nnc(SCCc3ccncc3)o2)c1	i	1	93
OC[C@H]1O[C@@H](O[C@@H]2[C@@H](CO)O[C@](O)(CO)[C@H]2O)[C@H](O)[C@@H](O)[C@H]1O	i	nt	nt	total CFTR fold 25 µM=1;total CFTR viability 25 µM=92
COCC(C)n1c(SCN2C(=O)c3ccccc3C2=O)nc2ccccc2c1=O (centres undefined)	i	0.96	94
CNC(=O)c1c(I)c(NC(C)=O)c(I)c(C(=O)O)c1I	i	nt	nt	total CFTR fold 25 µM=1.2;total CFTR viability 25 µM=90

Continued:
SMILES	total CFTR	total CFTR fold 10 ug/mL	total CFTR viability 10 ug/mL	others
CO[C@H]1C[C@@H]2CC[C@@H](C)[C@@](O)(O2)C(=O)C(=O)N2CCCC[C@H]2C(=O)O[C@H]([C@H](C)C[C@@H]2CC[C@@H](OC(=O)C(C)(CO)CO)[C@H](OC)C2)CC(=O)[C@H](C)/C=C(\C)[C@@H](O)[C@@H](OC)C(=O)[C@H](C)C[C@H](C)/C=C/C=C/C=C/1C	i	nt	nt	total CFTR fold 25 µM=0.98;total CFTR viability 25 µM=78
CCCC1(CCC)NC(=O)N(CC(=O)N2N=C3/C(=C\c4ccco4)CCCC3C2c2ccco2)C1=O (centres undefined)	i	0.98	85
O=C(C1CC=CCC1)N1CCc2ccccc21 (centres undefined)	i	0.91	89
CC(C)(C)NC(=O)[C@H]1CC[C@H]2[C@@H]3CC[C@H]4NC(=O)C=C[C@]4(C)[C@H]3CC[C@]12C	i	nt	nt	total CFTR fold 25 µM=0.9&0.98;total CFTR viability 25 µM=93&89
COc1ccc(OC)c2c1CN(Cc1cc(=O)n3nc(C)sc3n1)CC2O (centres undefined)	i	0.92	71
Cc1sc2nc(SCCN3CCOCC3)n(C(C)C)c(=O)c2c1C	i	1.1	97
CC(C)c1ccccc1-n1ccn(CN(C2CC2)C2CCS(=O)(=O)C2)c1=S (centres undefined)	i	1.1	85
CCOC(=O)COc1ccc2c(=O)cc(-c3ccccc3)oc2c1	i	nt	nt	total CFTR fold 25 µM=1;total CFTR viability 25 µM=89
CCC1(c2ccccc2)NC(=O)N(Cc2cc(=O)oc3cc(C)c(C)cc23)C1=O (centres undefined)	i	1	73
CN(C)C(=O)C(OC(=O)C12CC3CC(CC(O)(C3)C1)C2)c1ccccc1 (centres undefined)	i	0.96	84
C=CCn1c(N)nnc1SCC(=O)N1CCN(c2oc(C)nc2C#N)CC1	i	1.1	99
O=C(NCC1CCN(c2ccccc2)C1)C1CC(=O)N(c2ccc3c(c2)CCC3)C1 (centres undefined)	i	0.99	93
COc1ncnc(NS(=O)(=O)c2ccc(N)cc2)c1OC	i	nt	nt	total CFTR fold 25 µM=1&1;total CFTR viability 25 µM=90&98
CCOC(=O)c1c(C)[nH]c(C(=O)NC2CC2)c1C	i	0.96	94
CNC1(C)[C@H]2CC[C@H](C2)C1(C)C (some centres undefined)	i	nt	nt	total CFTR fold 25 µM=1.1;total CFTR viability 25 µM=98
COC(=O)c1ccc(N2CCCC2)c(NC(=O)N2CCN(S(=O)(=O)N(C)C)CC2)c1	i	1	86
COc1ccc(-c2nnc(SCc3nc(-c4cccnc4)no3)o2)cc1	i	0.98	94
CNC(=O)NC(=O)COc1ccc(I)cc1	i	1	93
CNS(=O)(=O)c1cc(C(=O)NC2CCCC2)n(C)c1	i	1.1	99
CC(C)C(C)NC(=O)CCc1nc(C(C)(C)C)no1 (centres undefined)	i	1.1	101
CCCCn1c(N)c(N(CC)C(=O)CCc2c(C)nc3nc(C(F)(F)F)nn3c2C)c(=O)[nH]c1=O	i	1	104
CN1C(=O)C(=O)N(CCOc2ccc(Cl)cc2Br)C1=O	i	0.98	90
COc1cc(Br)c(S(=O)(=O)NC2(c3ccc(Br)cc3)CC2)cc1OC	i	0.96	102
Cc1nsc2ncc(C(=O)c3cc(Br)ccc3O)cc12	i	0.79	78
Cc1ccsc1/C=C(/C#N)c1nc(-c2cccs2)no1	i	1.2	94
COc1ccc(NC(=O)Nc2ccc(OC)c(N3CCCC3=O)c2)cc1N1CCCC1=O	i	0.94	90
S=c1[nH]nc(N2CCCCC2)n1CC1CCCO1 (centres undefined)	i	0.99	100
COc1ccc(CCN2C(=O)CSC2c2ccc(F)cc2)cc1 (centres undefined)	i	1	99
O=C(O)COc1ccc2cc(Br)ccc2c1	i	1.2	102
Nc1cc(-c2ccc(Cl)cc2)sc1-c1nnc2n1CCCCC2	i	0.98	93
O=C(O)c1ccc2c(=O)[nH]c(-c3ccc(Cl)cc3)nc2c1	i	1.2	101
Cn1cc(C(=O)OCc2nc3ccccc3c(=O)[nH]2)cn1	i	1.1	94
CON(C)c1cnn(-c2ccc(C(F)(F)F)cn2)c(=O)c1Cl	i	1	90
CCOC(=O)N1CCC(=C2c3ccc(Cl)cc3CCc3cccnc32)CC1	i	nt	nt	total CFTR fold 25 µM=1.1&0.97&0.74;total CFTR viability 25 µM=87&88&78
COCCCn1c(=C(C#N)C#N)s/c(=C\c2cccs2)c1=O	i	1.1	99
COCCCNC(=O)c1ccc2c(c1)NC(=O)CCS2	i	1.1	91

Reprinted from the results shown, 7 compounds:
SMILES	total CFTR	total CFTR fold 10 ug/mL	total CFTR viability 10 ug/mL	others
Nc1cc(-c2ccc(Cl)cc2)sc1-c1nnc2n1CCCCC2	i	0.98	93
O=C(O)c1ccc2c(=O)[nH]c(-c3ccc(Cl)cc3)nc2c1	i	1.2	101
Cn1cc(C(=O)OCc2nc3ccccc3c(=O)[nH]2)cn1	i	1.1	94
CON(C)c1cnn(-c2ccc(C(F)(F)F)cn2)c(=O)c1Cl	i	1	90
CCOC(=O)N1CCC(=C2c3ccc(Cl)cc3CCc3cccnc32)CC1	i	nt	nt	total CFTR fold 25 µM=1.1&0.97&0.74;total CFTR viability 25 µM=87&88&78
COCCCn1c(=C(C#N)C#N)s/c(=C\c2cccs2)c1=O	i	1.1	99
COCCCNC(=O)c1ccc2c(c1)NC(=O)CCS2	i	1.1	91

Carrying on:
SMILES	total CFTR	total CFTR fold 10 ug/mL	total CFTR viability 10 ug/mL	others
O=C(Cn1cnc2cc(F)ccc2c1=O)C12CC3CC(CC(C3)C1)C2	i	1	93
Cn1c(SCC(N)=O)nc2ccsc2c1=O	i	0.97	86
CCOC(=O)c1c(C)[nH]c(C(=O)COC(=O)c2c(C)noc2C)c1C	i	0.97	91
O=C1CCSc2ccc(C(=O)Nc3nc(-c4ccc5c(c4)OCCO5)cs3)cc2N1	i	0.93	98
COC(=O)c1cnc(NC(=O)CCC2CCCC2)s1	i	0.94	101
CN(CC(=O)Nc1sc2c(c1C(N)=O)CCC2)Cc1cnn(C)c1	i	0.84	90
CCOC(=O)C1=C(C)N(C2CC2)C(=O)NC1c1cccs1 (centres undefined)	i	0.92	89
CC(O)(P(=O)(O)O)P(=O)(O)O	i	nt	nt	total CFTR fold 25 µM=1&1.1;total CFTR viability 25 µM=110&111
FC(F)(F)c1ccc(NCCNc2ccc3nnnn3n2)nc1	i	1.1	104
COCc1c(C(C)C)nc(C(C)C)c(/C=C/[C@@H](O)C[C@@H](O)CC(=O)O)c1-c1ccc(F)cc1	4	nt	nt	total CFTR fold 25 µM=1.5;total CFTR viability 25 µM=87
O=C1CSCN1CC(=O)N(Cc1cccnc1)C1CC1	i	1	101
O=C(CCCSc1nnc(NC2CC2)s1)c1cccs1	i	1.1	95
Cc1csc(C2(C#N)Cc3c(C)nn(-c4ccccc4)c3N3CCCCC32)n1 (centres undefined)	i	0.76	67
O=C(CCCN1CCC(O)(c2ccc(Br)cc2)CC1)c1ccc(F)cc1	i	nt	nt	total CFTR fold 25 µM=1.1;total CFTR viability 25 µM=112
CCN(CC)c1nc2c3c(nc4c(c3c1C#N)CC(c1ccccc1)O4)N=C(C)N2 (centres undefined)	i	1.1	90
CN(C)C1(CNc2cc3nc[nH]c(=O)c3cc2[N+](=O)[O-])CCCCC1	i	1.2	77
CC(C)(C)NC(=O)CSc1nnc(C2CC2)n1C1CC1	i	1.1	96
Cc1sc2nc(SCC3CCOCO3)n(C3CCCC3)c(=O)c2c1C (centres undefined)	i	1	108
CC(Sc1nnc(-c2ccco2)n1CCC(N)=O)C(=O)C12CC3CC(CC(C3)C1)C2 (centres undefined)	i	1	99
Cc1c(C2Nc3ccccc3C(=O)N2c2ccc3c(c2)OCO3)cc(C#N)n1C (centres undefined)	i	1.1	100
Cc1ncsc1C(=O)N1CCN(S(=O)(=O)N2CCN(C)CC2)CC1	i	0.98	103
O=C(COC(=O)c1ccc2c(c1)OCO2)NC1CC1	i	0.95	91
COc1ccc(CN(Cn2ncn(C3CC3)c2=S)C2CC2)cc1	i	0.96	91
O=C1Nc2ccc(-c3ccccc3)cc2C1=O	i	1	100

Pulled one by one from the entries so far:
SMILES	total CFTR	total CFTR fold 10 ug/mL	total CFTR viability 10 ug/mL	others
Cc1ccsc1/C=C(/C#N)c1nc(-c2cccs2)no1	i	1.2	94
CC(C)c1ccccc1-n1ccn(CN(C2CC2)C2CCS(=O)(=O)C2)c1=S (centres undefined)	i	1.1	85

More compounds
SMILES	total CFTR	total CFTR fold 10 ug/mL	total CFTR viability 10 ug/mL	others
CC(NC1CC1)c1ccc2ccccc2c1 (centres undefined)	i	0.99	92
CN1CCC(N(C)C(=O)C2CCNCC2)CC1	i	1.1	103
CC1CN(S(=O)(=O)N2CCN(Cc3ccc(C(F)(F)F)cc3)CC2)CC(C)O1 (centres undefined)	i	0.95	106
CCCc1noc(CCC(=O)Nc2ncn[nH]2)n1	i	1	88
CCN(CC)S(=O)(=O)N1CCN(S(=O)(=O)c2cc(Cl)c(C)c([N+](=O)[O-])c2)CC1	i	1.1	88
CCc1cc2c(SCC(=O)Nc3sc4c(c3C(N)=O)CCCC4)ncnc2s1	i	1.1	76
Cc1cc(C2N=C(N)Nc3nc4ccccc4n32)c(C)n1-c1cc(C(F)(F)F)ccc1N1CCOCC1 (centres undefined)	i	1.1	92
Cc1occc1-c1nnc(SC(C)C(=O)C23CC4CC(CC(C4)C2)C3)o1 (centres undefined)	i	0.89	87
O=C1c2ccc([N+](=O)[O-])cc2C(=O)N1Cc1cc(Cl)cc2c1OCOC2	i	1	96
CC(SC1=NCCS1)C(=O)Nc1ccc(Cl)cn1 (centres undefined)	i	0.95	94
CC(=O)c1sc2nc(CN3CC(C)OC(C)C3)[nH]c(=O)c2c1C (centres undefined)	i	1	106
CCONC(=O)C12CC3CC(CC(Cl)(C3)C1)C2	i	0.98	102
CS(=O)(=O)N1CCCc2cc(C(=O)CSc3nnnn3C3CC3)ccc21	i	0.99	98
COCCOCC(=O)Nc1cc2c(cc1F)CCC(=O)N2	i	1.1	82
CCCCCNS(=O)(=O)c1c(C)noc1C	i	0.97	99
Cn1ncc2c(NC(c3ccc4c(c3)CCC4)c3cccs3)ncnc21 (centres undefined)	i	0.79	66
COC(=O)C1=C(C)NC(=S)NC1c1c(F)cccc1F (centres undefined)	i	1	102
CN(C(=O)Cc1noc2ccccc12)C1CCc2ccccc21 (centres undefined)	i	0.91	85
CCCOc1cc(N)ccc1C(=O)OCCN(CC)CC	i	nt	nt	total CFTR fold 25 µM=0.99;total CFTR viability 25 µM=89
COc1ccc(C[C@H](N)C(=O)N[C@@H]2[C@@H](CO)OC(n3cnc4c(N(C)C)ncnc43)[C@@H]2O)cc1 (some centres undefined)	i	nt	nt	total CFTR fold 25 µM=1;total CFTR viability 25 µM=75
CSc1nnc(SCCn2nc3ccccn3c2=O)s1	i	1.1	106
c1ccc(-c2csc3nc(-c4ccccn4)nc(N4CCN(CC5CCCO5)CC4)c23)cc1 (centres undefined)	1.1	2.9	90
O=C(Nc1ccc(Cl)cn1)C1CCN(Cn2nc(N3CCCCC3)n(C3CC3)c2=S)CC1	i	0.97	94

This is a subset, so the mix of outcomes need not match the whole.
